Screening results: PubChem BioAssay, several laboratories
Mtb growth = M. tuberculosis H37Rv growth inhibitors, H37Rv strain (AID 1626). M. tuberculosis H37Rv growth inhibition; higher % means a stronger effect. inhibition, % at 10 µM; hits with a dose series show IC50 in µM. 220,000 compounds, 0.95% hits;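 active = confirmed in a dose series; inconclusive = inhibition above 80% but not taken into the dose series; inactive = below 80% or under 30% at every dose of the series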;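 also: bacteria incubated seven days before Alamar blue readout; 0% = bacteria only wells and 100% = bacteria with antibiotic wells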
YopH inh = YopH tyrosine phosphatase inhibitors, primary screen, biochemical, fluorescence Ex485/Em525. YopH tyrosine phosphatase [Yersinia enterocolitica]. inhibition, %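 (about 10 µM by stock and volumes)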. 140,000 compounds, 0.16% hits. AID 898, 2007;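 active = inhibition of 50% or more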;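 also: controls were vehicle for no effect and minimum signal wells for full effect; inactives centre near -20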
Mtb bLac sens = beta-lactam sensitization of Mtb H37Rv, H37Rv; inhibition, % at 25 µM; AID 434955, 2010; 330,000 compounds, 0.27% hits; M. tuberculosis H37Rv growth with meropenem, percent inhibition; hits of this screen are not shown here;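 active = about 74% or more and at least 40 points above the plate without the antibiotic, then above 30% in a dose series; inconclusive = first-round hits that could not be retested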;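 also: growth measured after seven days incubation then overnight dye step; 0% = bacteria only wells and 100% = bacteria with antibiotic; twin plates without the antibiotic show which effects depend on it; some results filed as inactive read as strong as hits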
RecA splice inh = Mtb RecA intein splicing inhibitors, primary screen, biochemical, fluorescence, HTS | Protein RecA (Mycobacterium tuberculosis (strain ATCC 25618 / H37Rv)), P9WHJ3 | cell-free RecA intein splicing | inhibition, %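 (about 9 µM by stock and volumes)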 | 290,000 compounds, 0.75% hits; in the data active = inhibition above about 30%; inconclusive = no clear call, values can overlap the other calls;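 also: 0% = vehicle wells and 100% = reference inhibitor control wells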
Target sequence (P9WHJ3 whole entry, looked up, canonical isoform): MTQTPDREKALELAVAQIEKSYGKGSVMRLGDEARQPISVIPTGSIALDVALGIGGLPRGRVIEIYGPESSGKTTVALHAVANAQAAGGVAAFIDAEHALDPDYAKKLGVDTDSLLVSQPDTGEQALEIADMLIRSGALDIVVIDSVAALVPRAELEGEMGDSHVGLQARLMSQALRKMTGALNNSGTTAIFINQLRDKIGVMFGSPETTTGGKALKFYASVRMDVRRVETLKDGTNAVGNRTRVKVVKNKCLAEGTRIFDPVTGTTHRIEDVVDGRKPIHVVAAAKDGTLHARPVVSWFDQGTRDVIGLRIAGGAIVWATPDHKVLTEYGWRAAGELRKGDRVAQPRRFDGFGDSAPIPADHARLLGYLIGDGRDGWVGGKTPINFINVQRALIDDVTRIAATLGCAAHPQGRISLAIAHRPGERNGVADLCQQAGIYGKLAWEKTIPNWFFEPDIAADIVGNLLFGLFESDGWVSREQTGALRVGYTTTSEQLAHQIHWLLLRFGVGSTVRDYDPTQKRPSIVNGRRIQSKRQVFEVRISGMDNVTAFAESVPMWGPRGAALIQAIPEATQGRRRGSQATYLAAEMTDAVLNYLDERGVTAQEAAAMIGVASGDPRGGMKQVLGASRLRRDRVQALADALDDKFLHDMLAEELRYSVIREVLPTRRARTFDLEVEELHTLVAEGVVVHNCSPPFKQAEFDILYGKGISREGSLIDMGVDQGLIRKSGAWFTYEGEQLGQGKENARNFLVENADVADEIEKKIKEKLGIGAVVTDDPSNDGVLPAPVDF
Arbovirus anti = antivirals against arbovirus infection, primary screen, cell-based, full library, 10K replicate subset. arbovirus infection cell-based antiviral screen. inhibition, % at 10 µM. 200,000 compounds, 0.37% hits;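 active = inhibition from about 30%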;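 also: bluetongue infection of BSR cells; cell survival read as ATP light after 72 h; 0% = infected wells without compound and 100% = uninfected wells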
Arbovirus anti repeat = further read-out of Arbovirus anti, marked with its call; inhibition, %; measured here: 10K subset replicate screen; many hits read low in the repeat;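 first of two repeat runs on a subset; 0% = infected and 100% = uninfected wells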
Numbers without * were called inactive; ? = inconclusive; / = no result given. Some of the compounds tested; the hit share may differ from the screen's.

SMILES	Mtb growth	YopH inh	Mtb bLac sens	RecA splice inh	Arbovirus anti	others
COc1ccc(NC(=O)NNC(=O)c2ccc(Cl)cc2Cl)cc1OC	-4.5%	/	1.3	-2.0	11.1
COc1ccc(NS(=O)(=O)c2cc(NC(=O)C3CC3)ccc2N2CCOCC2)cc1	6.1%	/	-7.5	0.8	0.4
CC(=O)Nc1ccc(S(=O)(=O)N(C2=NCC(C)S2)c2ccccc2)cc1 (configuration not stated)	1.4%	-22.0	-6.0	1.9	-7.6
Fc1cccc(Cl)c1CNc1ccc(N2CCCC2)cc1	10.4%	/	56.2	7.3	-0.7
Cc1ccc2c(Cl)cc(Cl)c(OCC(=O)Nc3cccc(S(=O)(=O)N(C)C)c3)c2n1	38.5%	-12.6	81.2	0.9	-10.3
O=C(c1ccc(F)cc1F)N1CCCC(c2nc(-c3ccc(F)cc3)no2)C1 (configuration not stated)	/	/	8.1	3.5	/
O=C(c1ccccc1-n1cccc1)N1N=C(C(F)F)CC1(O)C(F)F (configuration not stated)	-5.8%	-15.6	9.8	-0.5	3.1
CCc1nnc(NS(=O)(=O)c2ccc(NC(=O)c3cccc(Cl)c3)cc2)s1	0.8%	/	-5.4	1.0	5.3
COC(=O)c1ccc(NC(=O)Nc2ccc(F)cc2)cc1	-5.1%	-24.9	-5.0	-1.7	7.2
Cc1ccc(C2C3=C(CC(C)(C)CC3=O)N=C3c4ccccc4C(=O)C32)cc1 (configuration not stated)	8.9%	-11.4	92.1	10.8	-5.4
CC(C)C[C@H]1COCCS(=O)(=O)N1Cc1cccc(Cl)c1	3.5%	/	-7.0	2.4	/
CC(=O)Oc1ccc(C(=O)[C@H]2[C@H]3C(=O)N(c4ccc(C)cc4)C(=O)[C@H]3[C@@H]3C=CC=NN32)cc1	1.4%	6.7	5.8	10.1	3.2
c1ccc(CSCCc2ccncc2)cc1	/	-9.5	10.6	2.9	1.4
CN(CC1CCN(CCc2cccc(C(F)(F)F)c2)CC1)C(=O)c1ccc(F)cc1F	/	/	-2.3	0.2	/
O=C(NNS(=O)(=O)c1ccc(F)cc1)c1cccc(O)c1	/	/	12.5	-3.2	/
CCCCCn1c(=O)c(F)cn(Cc2ccc(OC)c([N+](=O)[O-])c2)c1=O	-12.1%	-19.9	4.6	-1.0	7.7
Cc1nc2ccc(NC(=O)Cc3ccc(Br)cc3)cc2s1	-7.8%	/	3.4	0.5	/
Cc1cc(C(=O)N(C)C)sc1-c1ccccc1	-3.5%	-10.7	5.1	-0.6	-8.7
Cc1ccc(S(=O)(=O)N(CC2CO2)c2cc(Cl)ccc2Cl)cc1 (configuration not stated)	/	/	-3.5	28.6	/
Cc1cccc(CN2C3=NCCCN3c3ccccc32)c1	/	/	-4.9	5.8	/
CCOc1ccc(NC(=O)CN2CCN(CC(=O)Nc3ccc4c(c3)OCCO4)CC2)cc1	-6.3%	-38.3	-4.4	/	0.2
Cc1ccc(CNC(=O)COc2cc(O)c3c(c2)OC(C)(C)CC3=O)cc1	/	/	-7.1	1.4	/
Cc1ccccc1-c1ncc(CN2CCN(C3CCCC3)C(CCO)C2)cn1 (configuration not stated)	2.1%	/	1.6	0.2	3.6
O=C1c2ccccc2C(=O)N1CC(O)CN1CCOCC1 (configuration not stated)	6.7%	-4.4	0.9	0.9	9.1
CCCCC1CC(CSc2ncn[nH]2)OC1=O (configuration not stated)	-2.0%	-50.6	3.6	/	7.4	Arbovirus anti repeat=3.6

Other compounds:
SMILES	Mtb growth	YopH inh	Mtb bLac sens	RecA splice inh	Arbovirus anti	others
CC1CCCCN1CCn1c(=S)[nH]c2cc3c(cc2c1=O)OCO3 (configuration not stated)	3.5%	/	-4.6	-2.6	11.5
NS(=O)(=O)c1ccc(O)c(N2C(=O)c3cccc4c(C(=O)O)ccc(c34)C2=O)c1	-3.9%	/	1.8	2.3	1.6
Cc1cc2oc(C(=O)N(Cc3ccccc3)c3ccccn3)cc(=O)c2cc1Cl	-8.8%	/	-7.2	1.7	/
COc1ccc2cc(C(C)c3nc4ccccc4c(=O)n3N)ccc2c1 (configuration not stated)	3.0%	-23.0	-6.0	11.8	3.3
CCc1c(C)nc2ncnn2c1N1CCC(C(=O)N2CCN(c3ccc(F)cc3)CC2)CC1	-3.0%	-42.9	1.9	1.7	15.8
COc1ccc(CCNC(=O)/C(C#N)=C/c2ccc(OCC(=O)NCC3CCCO3)cc2)cc1OC (configuration not stated)	-2.8%	/	-0.3	4.7	-3.6
Cc1cc2nc(-c3cccc(NC(=O)c4ccc(Br)o4)c3C)oc2cc1C	0.2%	-35.7	67.2	1.9	-1.9	Arbovirus anti repeat=-2.3
CN(C)/C=N/c1c(C#N)cnn1-c1ccccc1	-2.2%	-46.1	6.2	1.0	2.1	Arbovirus anti repeat=-2.6
Cc1c(N2C(=O)c3cccc4cccc(c34)C2=O)cnn1C	-0.7%	/	-9.3	0.8	/
O=C(O)c1c(C(=O)O)c(-c2ccc(F)cc2)n2c1CCC2	/	/	14.7	4.2	/
C#CCNC(=O)C(C)c1ncc(C(F)(F)F)cc1Cl (configuration not stated)	4.2%	/	1.8	-2.4	2.0
Cc1sc2ncn(CC(=O)N3CCCC(C)C3)c(=O)c2c1S(=O)(=O)N1CCCCC1 (configuration not stated)	/	/	-5.7	1.6	/
CC(C)C(=O)Nc1cccc(C(=O)Nc2ccc(S(=O)(=O)Nc3nccs3)cc2)c1	/	/	-4.3	3.0	/
CCOC(=O)N1CCN(C(=O)c2ccc3c(=O)n(Cc4ccccc4)c(=S)[nH]c3c2)CC1	-2.7%	-10.9	-0.3	1.8	5.3
Cc1cc(/C=C2\SC(=S)N(Cc3ccco3)C2=O)c(C)n1-c1cccnc1	/	-23.7	/	0.0	-15.8
CCc1c(C)nc2c(C#N)c(C)[nH]n2c1=O	5.2%	-35.6	-3.6	-0.1	6.4
CCC(CC)C1=NN2C(=N)/C(=C\c3cc(C)n(-c4cccc(C)c4)c3C)C(=O)N=C2S1	-2.5%	-15.8	-9.2	-3.8	4.8
COc1ccc(S(=O)(=O)n2nc(C)c(S(=O)(=O)N3CCOCC3)c2C)cc1OC	/	/	4.4	-1.6	/
CC(C)CCNC(=O)NC(=O)CSc1nnc(-c2ccccc2Br)o1	-13.0%	9.0	0.1	6.4	-3.5
O=C(Nc1ccc(Nc2ccccc2)cc1)c1ccco1	-0.4%	7.7	-4.9	12.3	-34.4
COc1ccc(-c2noc(=O)n2Cc2ccccc2Cl)cc1	/	/	3.0	1.4	/
COc1ccc(-c2nnc3ccc(SCC(N)=O)nn23)cc1OC	-4.6%	-42.2	-5.6	2.1	8.0
CCOC(=O)c1cc(C#N)c(SCC(=O)O)[nH]c1=O	1.4%	/	0.8	1.2	1.9
O=C1CCCc2c1nc(-c1ccccc1)n2O	-7.3%	-10.4	-19.8	1.2	1.6
O=c1[nH]nc(N/N=C/c2ccccc2OC(F)F)c(=O)[nH]1	-7.5%	/	0.1	-10.6	/

Continued:
SMILES	Mtb growth	YopH inh	Mtb bLac sens	RecA splice inh	Arbovirus anti	others
Cc1ccc(-n2ncc3c(=O)n(CC(=O)N(C)C)cnc32)cc1C	/	/	-5.9	-1.4	/
CN(C(=O)CCN1C(=O)c2ccccc2C1=O)c1ccccc1	/	/	-3.1	0.1	/
O=c1oc2ccccc2n1CCn1c2ccccc2c2nc3ccccc3nc21	0.2%	12.8	7.7	-10.1	-13.2
C=CCN(CC=C)C(=O)Nc1ccc2nc(C)sc2c1	?	-15.8	-5.3	-5.1	-0.2
CCOP(=O)(OCC)C(O)c1cc(OC)c(OC)c(OC)c1 (configuration not stated)	16.6%	-20.3	-1.0	3.4	-2.0
Cc1ccc(C(=O)N/C(=C\c2cn(S(=O)(=O)N(C)C)c3ccccc23)C(=O)NCCCN2CCOCC2)cc1	/	/	8.4	1.3	/
CC(C)(C)OC(=O)N1CCC(C(=O)O)CC1	-7.0%	1.3	-1.6	-0.5	5.4
CC(Sc1nc(N)cc(=O)[nH]1)C(=O)Nc1nc2c(s1)CCCC2 (configuration not stated)	/	/	0.2	3.8	/
COC(=O)c1c(C)oc(C)c1S(=O)(=O)N(Cc1ccccc1)C(C)C	1.5%	/	-5.5	3.9	/
Cc1ccc(CN2CCN(C/C(Cl)=C/c3ccccc3)CC2CCO)o1 (configuration not stated)	3.4%	/	-1.0	0.4	-5.9
C=CCn1c(SCC(N)=O)nc2nc3c(cc2c1=O)COC(C)(C)C3	-3.1%	/	-6.4	-1.2	/
Cc1ccc2c(c1)N(C(=O)CCC(=O)NCCN1CCOCC1)CC(C)O2 (configuration not stated)	/	/	-14.8	-0.9	/
Cc1ccc2nsnc2c1NC(=O)COc1ccccc1F	3.1%	/	-0.9	2.9	-4.3
Cc1cc(Cl)ccc1OCC(=O)N1CCCCC1	-3.9%	12.6	-8.0	2.3	-7.0
COCC(C)n1c(C)cc(C(=O)CSc2ncccn2)c1C (configuration not stated)	-1.3%	/	-11.8	-2.1	17.0
CCOc1cc(/C=N\Nc2ccc([N+](=O)[O-])cc2)ccc1OCC(=O)Nc1ccc(C)c(C)c1	9.2%	-12.7	/	-3.9	-6.4
Cc1nnc(N2CCOCC2)c2ccccc12	-6.2%	1.9	-17.1	2.0	0.8
C/C(=N\NC(=S)NC1CCCCC1)c1cccs1	67.0%	/	96.5	2.5	4.0
NC(=O)c1cc(S(=O)(=O)NCCCc2ccco2)cs1	/	/	-1.0	-6.3	/
CCOc1ccc(-c2nnc3sc(COc4ccccc4)nn23)cc1	-2.1%	-33.4	11.5	2.2	3.9
CC(C)c1nnc(NC(=O)Cc2ccccc2[N+](=O)[O-])s1	1.9%	-24.9	2.8	3.3	0.0
O=C(Cc1ccc(Br)cc1)Nc1ccc2[nH]ncc2c1	/	/	4.9	-1.9	/
CCOC(=O)c1sc2nc(CC(=O)OC)nc(NCc3ccc(F)cc3)c2c1C	-2.7%	-3.0	-0.8	2.2	2.3
CN(/N=C/c1ccc([N+](=O)[O-])o1)c1ccccc1	1.2%	/	92.5	8.5	-1.2
Cc1ccc(-n2nc3c(N4CCC(C(=O)NCCc5ccccc5C)CC4)nnc(C)c3c2C)cc1	/	/	2.6	-3.6	/

5 entries out of the list, sorted by molecular weight, low to high.
SMILES	Mtb growth	YopH inh	Mtb bLac sens	RecA splice inh	Arbovirus anti	others
C=CCN(CC=C)C(=O)Nc1ccc2nc(C)sc2c1	?	-15.8	-5.3	-5.1	-0.2
COC(=O)c1ccc(NC(=O)Nc2ccc(F)cc2)cc1	-5.1%	-24.9	-5.0	-1.7	7.2
Fc1cccc(Cl)c1CNc1ccc(N2CCCC2)cc1	10.4%	/	56.2	7.3	-0.7
Cc1ccc(S(=O)(=O)N(CC2CO2)c2cc(Cl)ccc2Cl)cc1 (configuration not stated)	/	/	-3.5	28.6	/
CN(CC1CCN(CCc2cccc(C(F)(F)F)c2)CC1)C(=O)c1ccc(F)cc1F	/	/	-2.3	0.2	/

The listing continues.
SMILES	Mtb growth	YopH inh	Mtb bLac sens	RecA splice inh	Arbovirus anti	others
O=S(=O)(Nc1ccc(Cc2ccncc2)cc1)c1cccs1	-3.4%	-17.3	0.8	-1.2	8.9
Cc1ccc(S(=O)(=O)N2CCN(C(=O)COC(=O)Cc3cccc(C(F)(F)F)c3)CC2)c(C)c1	/	/	2.0	-0.4	/
O=C(c1ccccc1F)N1CCN(c2cnn(-c3cccc(Cl)c3)c(=O)c2Cl)CC1	12.7%	/	-1.6	/	7.5
CCn1ncc(/C=N\NC(=O)c2csc3ccccc23)c1C	0.7%	-36.2	34.2	0.7	-9.3
COc1ccccc1C(=O)NC(=O)CSc1nncn1C	/	/	2.1	-1.7	/
CS(=O)(=O)NCCNC(=O)c1cc(OCC(F)(F)F)ccc1OCC(F)(F)F	0.2%	/	0.6	0.7	6.5
CC1CCC(NCC(=O)Nc2cccc(S(N)(=O)=O)c2)CC1 (configuration not stated)	1.5%	/	0.1	-2.7	12.7
Cc1nc(NC(=O)c2ccco2)sc1-c1csc(Nc2ccc(Cl)cc2)n1	8.3%	8.9	88.2	2.4	-48.1
COc1ccccc1/C=C/C(=O)NCC(=O)N/N=C/c1ccc(C)o1	/	/	1.1	0.4	/
O=C(CNC(=O)c1ccc(Cl)cc1)c1ccccc1	/	/	3.0	2.3	/
Cc1ccc2[nH]c3c(=O)n(CCCN4CCN(C)CC4)cnc3c2c1	-9.2%	-34.1	2.6	0.7	6.4
CCN(CC)CCN(C(=O)c1ccc([N+](=O)[O-])cc1)c1nc2c(OC)cccc2s1	0.8%	/	3.6	-4.3	7.9
CCOc1c(C(=O)CC)cc2c(C)cc(=O)oc2c1C	-2.9%	-2.3	4.3	-1.5	-1.5
